Anthrax LT inh: anthrax lethal toxin internalization inhibition; 70,000 compounds, 0.67% hits; Cells, anthrax lethal toxin internalization, FRET ratio (460/530); Potency, µM (series often up to 40 µM), inactives show at the top dose activity change, negative = inhibition, actives largely listed as inhibitors; active = well fitted falling ratio curve with the 530 nm signal flat; inconclusive = other ratio curves, or a change in one channel alone; inactive = flat curves in the ratio and both channels; the % refers to the ratio; further: on the % scale 0 is the no-effect control and ±100 the full control effect; nearly all actives have a fitted effect of over 50% in size; tested in ME-180 cells; beta-lactamase reporter
SmPrx2 inh: inhibitors of Schistosoma mansoni peroxiredoxin 2; S. mansoni Prx2 activity coupled to TGR/GSH (TGR is thioredoxin glutathione reductase), NADPH fluorescence loss, qHTS; some inactives read as strong as hits; Potency, µM; 65,000 compounds, 0.07% hits; active means full or partial inhibition curve with a strong effect at the top dose; inconclusive means weaker partial or single-point curve; inactive means no accepted curve; further: series up to 57 µM; many of its hits are not listed in these tables
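Enzyme mix: 100 uM NADPH, 25 nM TGR, 700 uM GSH, 50 nM Prx2 in 100 mM phosphate pH 7.4, 10 mM EDTA, 0.01% Tween-20. 15 min RT with compound; NADPH/GSH added, H2O2 starts reaction; NADPH fluorescence read 8 min.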
The depositor's hits bear a star; i = inactive; ? = inconclusive; · = not tested or not shown; [ ] = remark or other dose. Potency means the concentration at half of the fitted maximal effect. An excerpt; the hit share may differ from the screen's.

SMILES | Anthrax LT inh | SmPrx2 inh
CCN(C#N)c1nc(NC(C)C)nc(NC(C)C)n1 | 8.8% | >57
Cc1cccc(N2CC(C(=O)O)CC2=O)c1 (stereo not given) | -2.8% | >57
CC(c1ccccc1)C1C(C#N)=C(N)SC(N)=C1C#N (stereo not given) | 6.2% | >57
CC(C)(C)Nc1cccccc1=O | 4.9% | >57
CCC(Sc1nc(=O)cc(N)n1CCc1ccccc1)C(=O)Nc1ccccc1C#N (stereo not given) | ? | >57
CC1CCN(S(=O)(=O)c2cccc(C(=O)Nc3ccccn3)c2)CC1 | -7.0% | >57
O=C(CSc1nc2ccccc2o1)Nc1ccccc1 | 3.8% | >57
CC(C)Cn1c(=O)c(C(=O)Nc2cnccn2)c(O)c2ccccc21 | 2.4% | >57
CC(=O)c1ccc(NC(=O)C2CCCN2S(=O)(=O)c2cccc3cccnc23)cc1 (stereo not given) | -6.1% | >57
COc1ccc(Oc2ncc3nc(-c4ccc(F)cc4)c(=O)n(C[C@H]4CCCO4)c3n2)cc1 | ? | >57
O=C(NCCCN1CCCCC1)C1CCC(=O)N1CCc1ccccc1 (stereo not given) | 2.2% | >57
Cn1c(=O)c2c(nc(NCc3ccc4c(c3)OCO4)n2C)n(C)c1=O | 2.9% | >57
C=CCc1ccccc1OCCn1ccnc1 | · | >57
COC(=O)c1ccccc1NC(=O)C1CC(=O)N(c2ccccc2)C1 (stereo not given) | -12.6% | >57
CCCCNC(=O)c1nc2ncc(Br)cn2n1 | 0.9% | >57
CC(C)c1ccc(N(CC(=O)O)S(=O)(=O)c2cccnc2)cc1 | -5.8% | >57
Cc1ccc(-n2nnc3ccccc3c2=O)cc1C | 12.6µM* | ·
CSc1ccc(C2C(C#N)=C(N)Oc3cc4c(cc32)OCO4)cc1 (stereo not given) | -8.7% | >57
O=C(Nc1ccccc1)Nc1ccccn1 | -6.6% | >57
CN(Cc1ccco1)c1ccnc(-c2cccc(C#N)c2)n1 | ? | >57
Cc1cc(N2CC(=O)N(CCc3ccccc3)C(=O)C2)n2ncnc2n1 | 0.2% | >57
Cc1cccc(OCCCC(=O)Nc2ccc(N3CCOCC3)cc2)c1 | -22.0% | ·
OC(COc1ccccc1)CN1C2=NCCCN2c2ccccc21 (stereo not given) | -1.1% | >57
Cc1cc(NC(=O)COC(=O)c2ccc(F)c(S(=O)(=O)N3CCOCC3)c2)no1 | -4.0% | >57
CSc1nnc2c3ccccc3n(Cc3ccccc3)c2n1 | 1.1% | >57
Continued:
SMILES | Anthrax LT inh | SmPrx2 inh
COc1ccccc1-c1ccc2ncnc(N3CCOCC3)c2c1 | ? | >57
CCCC(=O)Nc1ccc(Cl)c(NC(=O)c2cccnc2)c1 | -3.4% | >57
Cc1ccc(C)n1CCN1CCN(CC(=O)Nc2ccc(S(N)(=O)=O)cc2)CC1 | 0.4% | >57
COc1cc(OC)cc(-c2nc(-c3ccccc3)no2)c1 | 3.4% | >57
Cc1[nH]nc(-c2ccc(O)cc2O)c1-c1ccc(Cl)cc1 | ? | >57
CN(C)CCCNCCCNC(=O)/C(=N\O)c1ccccn1 | -12.8% | >57
Cc1cc(C)c(-c2cc(NC(=O)CSc3nncn3C)n(-c3ccccc3)n2)cc1C | 10.1% | >57
Cc1onc(-c2c(Cl)cccc2Cl)c1C(=O)NC(C)(C)CO | -24.5% | >57
COc1ccc(OCCN2C(=O)NC(C)(c3ccc(C)cc3)C2=O)cc1 (stereo not given) | -0.4% | >57
C=CCn1c(COc2cccc3ccc(C)nc23)nnc1SCC(=O)OC | ? | >57
N#Cc1cccc(-c2ccc3ncnc(NCc4cccnc4)c3c2)c1 | 4.1% | i
CC(NC(=O)C(NC(=O)C1CCCN1C(=O)OC(C)(C)C)C(C)C)C(N)=O (stereo not given) | -0.8% | >57
COC(=O)[C@@]1(Cc2ccc(OC)cc2)[C@H]2c3cc(C(=O)N4CCCC4)n(Cc4nc5ccccc5[nH]4)c3C[C@H]2CN1C(=O)c1ccccc1 | 6.3% | >57
COc1ccc(O[C@H]2C=C[C@@H](c3ccccc3)O[C@H]2COC(=O)CC/C(C)=N\O[C@@H](C)CN2CCCc3nc(C)c(C)cc32)cc1 | -1.7%[8 µM] | ·
CC(NC(=O)OC1CCCCC1)N1C(=O)C2C3C=CC(C3)C2C1=O (stereo not given) | -2.0% | >57
COc1ccc(S(=O)(=O)N2CCCN(Cc3cccc(F)c3)CC2)cc1 | 1.5% | >57
CN(C)S(=O)(=O)c1ccc(C(=O)Nc2ccnn2C2CCCCC2)cc1 | 7.7% | >57
CCOC(=O)C1CCCN(C(=O)COC(=O)C2=COCCO2)C1 (stereo not given) | -3.3% | >57
CCNc1ncc2ncc(=O)n(CCc3ccccc3)c2n1 | -13.9% | >57
Cc1noc(C(=O)Nc2ccccc2C(F)(F)F)c1Cl | ? | >57
COCCNC(=O)c1sc2ncn(CC(=O)N3CCCCC3)c(=O)c2c1C | -29.3% | >57
O=S(=O)(Nc1cccnc1)c1ccc2c(c1)OCCO2 | -1.1% | >57
Cn1nnnc1SCCNC/C=C/c1ccccc1 | -1.3% | >57
CCOC(=O)c1[nH]c(=O)[nH]c1CSc1ccccn1 | -13.9% | >57
CCc1cccc(NC(=O)Cn2ncn3c(cc4ccccc43)c2=O)c1 | -10.8% | >57
New compounds follow.
SMILES | Anthrax LT inh | SmPrx2 inh
COc1ccc(-c2nnc(SCC(=O)c3cccs3)o2)cc1 | 24.5% | >57
CC1CN(C(=O)C2CCCN2S(=O)(=O)c2ccc(Cl)cc2)CC(C)O1 (stereo not given) | -5.4% | >57
Cc1ccc(S(=O)(=O)n2nc(-c3cccnc3)nc2N)cc1 | -0.6% | >57
O=C(O)c1ccccc1-c1nc2ccccc2c(=O)[nH]1 | -5.2% | >57
c1coc(-c2nnc(-c3ccc4c(c3)OCO4)o2)c1 | 0.7% | ·
Cn1c(=O)[nH]c(=O)c2c1nc(CN1CCOCC1)n2CCc1ccccc1 | -4.5% | >57
COC(=O)c1ccccc1NC(=O)C1CCN(S(=O)(=O)c2cc(OC)ccc2OC)CC1 | -23.1% | >57
OCc1nnn(-c2cccc(C(F)(F)F)c2)c1CO | 9.3% | >57
O=C(c1ccc(COc2ccc(Cl)cc2)o1)N1CCN(Cc2ccc3c(c2)OCO3)CC1 | -22.4% | ·
Cc1cc(C)n(-c2cccc3cccnc23)n1 | -6.4% | >57
C=CCn1c(NC(=O)c2ccccc2)c(C#N)c2nc3ccccc3nc21 | ? | >57
Cc1cccc(N2C(=O)N(c3ccccc3C)C3CS(=O)(=O)CC32)c1 (stereo not given) | 0.4% | >57
CC(=O)c1c(C)nc(-c2ccc(Cl)cc2)nc1N=CN(C)C | -11.8% | >57
CC1(C)CC2(CCCN3C(=O)CSC32)CCS1 (stereo not given) | -2.8% | >57
CCOC(=O)Nc1ccccc1C(=O)N1CCOCC1 | 6.5% | ·
Cc1cc(C)cc(N(CC(=O)N2CCC(C)CC2)S(C)(=O)=O)c1 | 24.6% | >57
COc1ccc(N(CC(=O)NC(C)(C)C)C(=O)c2ccco2)cc1 | ? | >57
COc1ccc(-n2c3c(cc(C(=O)N4CCCCC4)c2=O)C(=O)CC(C)(C)C3)cc1 | 0.3% | >57
O=c1c(-c2cc(F)cc(F)c2)nc2cnc(N3CCNCC3)nc2n1Cc1cccs1 | ? | >57
C#CCC(C(=O)OC)(C(=O)OC)C(C[N+](=O)[O-])c1ccccc1 (stereo not given) | 2.2%[8 µM] | ·
Cc1noc(/C=C/N(C)C)c1S(=O)(=O)N1CCCC(C(=O)NC2CCCCC2)C1 (stereo not given) | -13.5% | >57
Cc1cc(S(=O)(=O)N(Cc2ccccc2)Cc2ccc(N(C)C)cc2)ccc1-n1cnnn1 | ? | >57
COc1ccc(N=Cc2c(O)[nH]c3ccccc23)cc1OC | -10.8% | >57
CCOP(=O)(c1c(F)c(F)c(F)c(F)c1F)C1(O)CCCCC1 (stereo not given) | ? | >57
CCOC(=O)NCCc1ccc(OC)cc1 | -2.1% | ·

At a glance, part of the list above:
SMILES | Anthrax LT inh | SmPrx2 inh
CCOP(=O)(c1c(F)c(F)c(F)c(F)c1F)C1(O)CCCCC1 (stereo not given) | ? | >57
CCOC(=O)NCCc1ccc(OC)cc1 | -2.1% | ·

Additional results:
SMILES | Anthrax LT inh | SmPrx2 inh
CCOC(=O)c1oc2ccccc2c1NC(=O)Cc1cccs1 | -7.0% | >57
Nc1ccccc1C(=O)/C=C\c1ccc2c(c1)OCO2 | -22.7%[8 µM] | ·
CC[N+](CC)(CCCNC1=CC(=O)C(NCCC[N+](CC)(CC)Cc2ccccc2)=CC1=O)Cc1ccccc1 | ? | >57
COc1cc(-c2nnc(COc3ccc4ccccc4c3)o2)cc(OC)c1OC | ? | ·
Cc1ccc(NC(=O)CC2Oc3ccc(C)cc3NC2=O)cc1 (stereo not given) | -6.1% | >57
CCN1C(C)=C(C(=O)OC)C(c2ccccc2)N2C(=O)[C@@]3(C(=O)OC)O[C@@]12C1C(=O)CCCC13 (stereo not given in full) | -11.0%[8 µM] | ·
c1ccc(-c2noc(CN3CCN(C(c4ccccc4)c4ccccc4)CC3)n2)cc1 | 11.4% | >57
O=C(c1ccc2c(c1)N(Cc1ccc(F)cc1)C(=O)CS2)N1CCOCC1 | -7.5% | >57
Nc1c(N2CCOCC2)cc(Cl)c2nonc12 | -11.7% | >57
CCC(C)Cn1c(C)nc2ccccc21 (stereo not given) | 0.4% | >57
Cc1nc2ccccc2c(=O)n1CCCO | -2.3% | ·
Cc1cc(C)cc(NC(=O)C2CCCN(S(=O)(=O)c3cnc[nH]3)C2)c1 (stereo not given) | -3.6% | >57
CN1CCN(c2ccnc(-c3ccoc3)n2)CC1 | -13.5% | ?
CCOC(=O)N1CCC(NC(=O)CS(=O)(=O)Cc2nc(-c3ccccc3C)oc2C)CC1 | 4.3% | >57
COc1cccc(Cn2c(=O)c(-c3cccc(F)c3)nc3cncnc32)c1 | -17.7% | >11.4
CCOC(=O)C1C(=O)Oc2ccc3ccccc3c2C1C1CCOC1=O (stereo not given) | -10.5% | >57
c1ccc2c(c1)OCC(c1csc3ncnc(N4CCOCC4)c13)O2 (stereo not given) | -16.8% | >57
CC(C)N(Cc1nc2ccccc2[nH]1)C(C)C | -9.7% | >57
O=C(NCc1cccnc1)C1CCN(S(=O)(=O)N2CCOCC2)CC1 | ? | >57
Cc1cc(NC(=O)c2cc(-c3ccccn3)nc3ccccc23)no1 | ? | >57
CCCN(CCC)S(=O)(=O)c1ccc(C(=O)Nc2nnc(-c3cc(OC)cc(OC)c3)o2)cc1 | 6.4% | >57
Cc1ccc([C@@H]2C3COCC=C3C(C#N)=C(N)C2(C#N)C#N)o1 (stereo not given in full) | -14.8% | >57
Cc1ccc(N2C(=O)c3ccc(N)cc3C2=O)cc1C | ? | >57
CC1NC2(C(=O)N(Cc3ccccc3)c3ccccc32)C2C(=O)N(c3ccccc3)C(=O)C12 (stereo not given) | -8.2% | >57
CCn1cc(SCC(=O)Nc2cc(C)on2)c2ccccc21 | -10.6% | >57

Looked up above:
In SmPrx2 inh, `CC[N+](CC)(CCCNC1=CC(=O)C(NCCC[N+](CC)(CC)Cc2ccccc2)=CC1=O)Cc1ccccc1` shows >57
In SmPrx2 inh, `CC(C)N(Cc1nc2ccccc2[nH]1)C(C)C` shows >57

More records follow.
SMILES | Anthrax LT inh | SmPrx2 inh
COc1ccc(OC)c(CNC(=O)C2CCCN(C(=O)N(C)C)C2)c1 (stereo not given) | -4.9% | >57
CCNCCCNCCCNCCCNCC | -12.1% | >57
Brc1ccc(-c2ccccc2)cc1 | -7.5% | ·
CCC/C=C(\CCC)C(NS(=O)(=O)c1ccc(Cl)cc1)c1ccccc1 (stereo not given) | ? | >57
c1cncc(CNC2=NCCC2)c1 | 6.3% | >57
CCc1cc2c(=O)c(Oc3ccccc3F)c(C)oc2c(CN(C)C)c1O | 15.9% | ·
Cc1occc1C(=O)Nc1nnc(C(F)(F)F)s1 | 1.0% | >57
CN(C)c1ccc(CNC2CC(C)(C)NC(C)(C)C2)cc1 | ? | >57
COc1ccc(C2CCCN2C(=O)Nc2ccc(F)cc2)cc1OC (stereo not given) | -7.8% | >57
CC12CCC(C(=O)Nc3cccc(NC(=O)C45CCC(C)(C(=O)O4)C5(C)C)n3)(OC1=O)C2(C)C | 0.0% | >57
CN1CCN(C(=O)c2ccc(N(Cc3ccccc3Cl)S(C)(=O)=O)cc2)CC1 | -5.0% | >57
COCC(C)NCc1ccccc1C (stereo not given) | 1.6% | >57
CCC(CCC(=O)Nc1cccc(C(=O)O)c1)C(=O)O (stereo not given) | 6.7% | >57
CCCCCCN(C(=O)CCCCCN1C(=O)NC(c2ccc(-c3ccccc3)cc2)C(C(=O)OCc2ccccc2)=C1C)C(C(=O)NCCCC)c1ccc(OCC(=O)OC)cc1 (stereo not given) | 6.0% | ·
CCC(C(=O)N1CCN(c2cccc(Cl)c2)CC1)c1ccccc1 (stereo not given) | -14.7% | ·
O=C(NCc1ccco1)c1cc(-c2ccncc2)nc2ccccc12 | -4.5% | >57
Cc1cccc(N=C2NC(=O)CS2)c1C | -5.6% | >57
O=Cc1ccc(C(=O)O)cc1 | -6.4% | ·

In a second layout: entries from further up
> Brc1ccc(-c2ccccc2)cc1
  Anthrax LT inh = -7.5%
  SmPrx2 inh = ·

> Cc1occc1C(=O)Nc1nnc(C(F)(F)F)s1
  Anthrax LT inh = 1.0%
  SmPrx2 inh = >57
